Bioassay records: PubChem BioAssay, several laboratories
T cruzi repl: blocks replication of Trypanosoma cruzi; T. cruzi beta-gal in NIH3T3, luminescence, 90 h; inhibition, % (concentration not given with the values); 300,000 tested, 1.4% active; AID 1885;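 active means mean inhibition across valid replicates above about 55%, limit read from the data; inconclusive means mean below that limit but half or more replicates reach it; inactive means mean below it, under half of replicates reach it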;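 further: signal also drops with host cell toxicity which is not excluded here; 0% = plate median of DMSO wells and 100% = zero luminescence signal; higher percent means less beta-gal luminescence so fewer parasites; stock transfer was 50 nL into about 50 µL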
A1 inh: inhibitors of the anti-apoptotic protein A1, read as caspase activation | MEF A1-2A-BIM cells, Caspase-Glo 3/7 luminescence, 3 h; percent of clofoctol response, vehicle zero | caspase activation, % (test concentration not listed) | 330,000 tested, 0.066% active | AID 2462;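 active means over half of replicate activation scores above 10%, or exactly half above 10 with the replicate mean above 10; inconclusive means replicate mean below 10 yet half the replicates above 10; inactive means over half of replicates below 10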;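 further: wells of about 30 µL received 50 nL stock; many hits fall short of the cut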
rRNA inh HTS: inhibits bacterial ribosomal RNA function over humanized ribosomes; GFP signal change (wild-type ribosome), % (no concentration beside the values); AID 720706; E. coli WT GFP vs humanized-ribosome RFP mutants, fluorescence, 24 h; stronger effect = lower value; DMSO median 0, no signal -100; 350,000 tested, 1.6% active;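 active means significant combined selectivity score with lowered wild-type GFP, culture density cut under 30%, mutant RFP and density less affected; inactive means any of these conditions unmet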; further: one replicate is shown; some compounds called inactive have numbers as strong as hits
Beta2AR agonist: human beta-2 adrenergic receptor agonism by FAP; P07550; Am2.2-beta2AR cells, FAP receptor internalization, flow cytometry; reference of the scale not given here; response, % (no concentration beside the values); 340,000 tested, 0.43% active; AID 504454;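 active means response above a set limit, near 3 SD of response in nonfluorescent compounds, cut at about 42% in these data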;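 further: stock transfer was 100 nL into about 11 µL; a reference agonist was the positive control; negative values mostly stem from fluorescent compounds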
Target sequence (P07550 whole entry, looked up): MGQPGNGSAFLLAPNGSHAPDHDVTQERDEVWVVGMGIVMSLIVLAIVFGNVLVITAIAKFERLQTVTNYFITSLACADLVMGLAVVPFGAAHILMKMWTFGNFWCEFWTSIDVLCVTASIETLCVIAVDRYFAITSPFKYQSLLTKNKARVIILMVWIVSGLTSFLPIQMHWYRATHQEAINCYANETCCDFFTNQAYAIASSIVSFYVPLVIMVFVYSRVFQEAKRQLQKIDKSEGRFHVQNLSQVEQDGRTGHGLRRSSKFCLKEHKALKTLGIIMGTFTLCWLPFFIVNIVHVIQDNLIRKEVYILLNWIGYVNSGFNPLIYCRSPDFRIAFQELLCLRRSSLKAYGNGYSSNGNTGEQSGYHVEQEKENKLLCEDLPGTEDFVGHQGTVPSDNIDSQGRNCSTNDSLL
LANA-H2A inh: blocks KSHV LANA binding to histone H2A/H2B; Q9QR71; cell-free LANA-H2A/H2B peptide, fluorescence polarization; inhibition, % (test concentration not listed); 320,000 tested, 0.6% active; AID 2629; in the data active means inhibition mostly above about 10%, no sharp cut-off; inactive means mostly below about 6.7%;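 further: stock transfer was 7.5 nL into about 10 µL; 0% = median of vehicle wells and 100% = median of positive control wells; one replicate is shown; the record names a cut of 25% in any replicate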
ALR inh: inhibitors of human sulfhydryl oxidase ALR. purified ALR, DTT oxidation, H2O2 HRP-luminol luminescence. inhibition, % (no concentration beside the values). 290,000 tested, 3.8% active;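 active means mean and each replicate at 75% or more; inconclusive means only one of the two met; inactive means neither met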;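 further: stock transfer was 7.5 nL into about 7.5 µL; 0% = neutral wells and 100% = wells with inactivated enzyme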
Target sequence (P55789 whole entry, looked up): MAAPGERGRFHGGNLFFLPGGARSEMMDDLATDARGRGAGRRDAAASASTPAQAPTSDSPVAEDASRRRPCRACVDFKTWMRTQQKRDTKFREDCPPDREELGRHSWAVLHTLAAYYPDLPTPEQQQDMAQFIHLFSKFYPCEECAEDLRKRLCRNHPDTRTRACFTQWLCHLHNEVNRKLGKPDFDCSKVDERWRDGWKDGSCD
Calb FLC: affects C. albicans growth with fluconazole. C. albicans CaCi-2 (fluconazole-resistant clinical isolate) + fluconazole, Alamar Blue growth, 48 h. growth inhibition, % (concentration not given with the values). 300,000 tested, 0.57% active. AID 1979;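 active means most replicates above 75%; inconclusive means exactly half above 75%; inactive means most below 75%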;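 further: all wells also contain fluconazole at 8 µg/ml as a sub-toxic cotreatment; 0% = median of DMSO wells and 100% = median of geldanamycin control wells; wells of about 8 µL received 7.5 nL stock; the first replicate is given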
Beta cell apopt: beta cell apoptosis inhibition; INS-1E cytokine-induced death, ATP luminescence, 48 h; percent of positive-control rescue, neutral wells zero; protection from apoptosis, % (test concentration not listed); 300,000 tested, 0.8% active; AID 435005;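 active means all replicates at 75% or more, or half of them and the mean; inconclusive means half reach 75% but not the mean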;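 further: 0% = cytokine-treated negative control wells and 100% = positive control rescue; higher means more ATP so stronger rescue from cytokine killing; wells of about 40 µL received 100 nL stock; the first replicate is given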
rRNA inh HTS OD600: also measured in rRNA inh HTS; calls as there; OD600 change, %; measured here: OD600 growth;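 optical density of the mix in the first replicate; 0 = DMSO median and -100 = no signal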
rRNA inh HTS RFP: recorded beside rRNA inh HTS, whose call it bears; RFP signal change, %; measured here: RFP humanized mutant strains;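 first replicate; 0 = DMSO median and -100 = no signal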
Active calls of the source: *; ? = inconclusive; nt = not tested or not shown.

SMILES | T cruzi repl | A1 inh | rRNA inh HTS | rRNA inh HTS OD600 | rRNA inh HTS RFP | Beta2AR agonist | LANA-H2A inh | ALR inh | Calb FLC | Beta cell apopt
CC(NC(=O)c1ccccc1OC(F)F)c1ccc(-n2ccnc2)cc1 (configuration not stated) | -28 | 0.2 | 1 | 0 | 2.2 | 3 | 0.3 | -3 | -15 | 3
Cc1ccc(NC(=O)Cn2c(O)c(N=NS(=O)(=O)c3ccc(C)cc3)c3ccccc32)cc1 | -5 | 0.0 | 3 | 0 | 2.0 | -3 | -2.1 | 1 | -8 | -12
Cc1ccc(S(=O)(=O)N2CCN(c3ncnc4ccccc34)CC2)cc1 | nt | -0.5 | -4 | -52 | -14 | -7 | 2.7 | -22 | nt | 102*
O=S(=O)(NC1CCN(S(=O)(=O)c2c(F)cccc2F)C1)c1ccc2c(c1)OCCO2 (configuration not stated) | nt | -0.7 | -2 | -9 | 1.5 | -2 | 3.0 | -5 | nt | 3
CCN(CC)C(=O)Cn1ccc(NC(C)=O)nc1=O | 7 | -0.4 | 12 | 19 | -0.2 | -2 | -2.4 | -10 | -5 | -1
Cc1nnc(SCC(=O)Nc2cccc(Cl)c2)n1CC1CCCO1 (configuration not stated) | -12 | 0.0 | 5 | -3 | -3.4 | 7 | 3.8 | 0 | -14 | -1
Nc1c(N=Nc2ccccc2F)c(=O)[nH]n1-c1ccccc1 | 6 | -3.3 | nt | nt | nt | 0 | 8.1 | -1 | 6 | 2
Cc1cccc(N2CCN(C(=O)C3CCN(S(=O)(=O)c4c(C)noc4C)CC3)CC2C)c1 (configuration not stated) | 14 | -0.1 | -7 | -27 | 0.0 | 12 | 8.1 | 98* | -18 | 2
CC(=NNC(=O)c1ccc(NS(=O)(=O)c2ccc(Br)cc2)cc1)c1cccnc1 | nt | -0.2 | 3 | -6 | 0.8 | 10 | 3.1 | 8 | nt | -3
Cc1nn(C)c(Sc2ccccc2N)c1[N+](=O)[O-] | -3 | 0.1 | 12 | 12 | 0.1 | 3 | 0.6 | 98* | -2 | -7
CC(=NCCN1CCOCC1)C1=C(O)c2ccccc2C1=O | -6 | 0.8 | nt | nt | nt | -7 | -3.4 | -1 | -9 | -4
Cc1ccc(C(=O)Nc2ccc(N3CCN(C)CC3)nc2)cc1 | 8 | -0.6 | -4 | -4 | -0.9 | -1 | 2.7 | 1 | -13 | -5
CC1CCc2c(sc3ncnc(NCCCOC(C)C)c23)C1 (configuration not stated) | 36 | 0.3 | nt | nt | nt | -3 | -4.5 | -3 | 1 | 14
CC(=O)c1ccc(S(=O)(=O)Nc2cccc(-c3ccc4nncn4n3)c2)cc1 | -5 | -0.6 | nt | nt | nt | -5 | -6.4 | -11 | -14 | 1
CC(C)N(Cc1nccn1C)C(=O)CCc1nnc(CCCc2ccccc2)o1 | 3 | -0.1 | 13 | 13 | -0.7 | -2 | 8.1 | -3 | -10 | -4
CC(=O)Nc1ccc(S(=O)(=O)N2CCC(C(=O)NC3CC3)CC2)cc1 | -8 | -0.1 | 15 | 8 | -0.8 | 2 | 8.5 | -3 | 6 | -5
COC(=O)c1ccc(OS(=O)(=O)c2ccc(NC(C)=O)cc2)cc1 | -22 | -0.2 | -21* | -5.4* | 2.5* | 3 | -9.2 | -4 | -3 | 2
Cc1cc(Cl)c(S(=O)(=O)Nc2ccccn2)cc1OCC(N)=O | 12 | 0.5 | nt | nt | nt | -9 | 3.0 | 1 | 7 | -7
O=C(CCNS(=O)(=O)c1ccc2[nH]c(=O)oc2c1)Nc1ccccc1 | -11 | 0.2 | nt | nt | nt | 2 | 5.2 | 8 | 25 | -1
CC(C)N(CCCNC(=O)Cn1c(=O)c2cccn2c2ccc(F)cc21)Cc1ccccc1 | 7 | -0.7 | 20 | 10 | 1.5 | 2 | -1.2 | -8 | -5 | 6
O=C(Oc1cc2oc(=O)c3c(c2cc1Cl)CCCC3)c1cccs1 | -10 | -1.5 | -16 | -12 | -3.8 | 9 | -6.2 | -4 | 95* | -16
Cc1ccccc1C(=O)NC1CCN(CC(=O)Nc2ccc(Br)cc2)CC1 | 15 | 0.7 | -9 | -8 | 0.5 | -6 | 4.4 | -1 | -1 | -3
Oc1ccc(N2CCN(c3nc(-c4cccs4)nc4ccccc34)CC2)cc1 | 8 | 0.3 | -8 | -4 | 18 | 7 | -3.5 | 19 | -8 | -1
Cc1ccccc1NC(=O)NNC(=O)OC(C)(C)C | 2 | -0.2 | 9 | 1 | -1.5 | -5 | 1.1 | 7 | -7 | -2
CCCCN1C(=O)Nc2ccccc2S1=O (configuration not stated) | -4 | 1.1 | nt | nt | nt | -5 | 0.2 | -1 | 3 | 5
Further compounds:
SMILES | T cruzi repl | A1 inh | rRNA inh HTS | rRNA inh HTS OD600 | rRNA inh HTS RFP | Beta2AR agonist | LANA-H2A inh | ALR inh | Calb FLC | Beta cell apopt
COc1cccc(CNC(=O)CCC2CCCN(C/C=C/c3ccccc3OC)C2)c1 (configuration not stated) | 66* | -0.1 | 0 | -2 | 2.7 | 3 | 3.6 | nt | -8 | 0
CC(C)CCNc1c(-c2cccs2)nc2ccccn12 | -20 | -1.6 | -26* | -18* | -0.1* | 3 | -5.4 | -15 | 3 | nt
CCN(c1ccc(NC(=O)COC(=O)CCC(=O)c2ccc(F)cc2)cc1)C(C)C | -8 | 0.0 | nt | nt | nt | 5 | 1.6 | 93* | -8 | 3
CCOC(=O)N(NC(=O)C(O)(CC(C)C)CC(C)C)c1ccccc1 | -9 | 0.1 | -1 | -1 | 0.0 | 8 | -4.9 | nt | -13 | -5
O=C(Nc1cccc(O)c1)c1cc(-c2ccccc2Cl)on1 | -16 | -6.0 | -25* | -9.2* | -3.6* | 6 | 1.4 | 23 | 17 | -6
CCOC(=O)N1CCC(NC(=O)CCC(=O)N2CCOc3ccc(Cl)cc32)CC1 | -5 | -0.1 | 6 | 3 | -1.0 | 1 | -1.0 | -5 | 6 | -3
COc1ccc(NC(=O)CCCn2cc([N+](=O)[O-])cn2)cc1 | -19 | -0.7 | 12 | 3 | 0.6 | -1 | -3.6 | -2 | 13 | 7
CC(C)c1cc(C(=O)N2CCCC(N3CCN(c4ccc(F)cc4)CC3)C2)n(C)n1 (configuration not stated) | 10 | nt | 1 | 5 | 1.8 | -3 | nt | nt | -11 | nt
O=c1[nH]ncc(N2CCCC2)c1Cl | -9 | 0.9 | 21 | 14 | -0.4 | -15 | 2.4 | -5 | -14 | -4
Nc1c(N(Cc2ccco2)C(=O)c2cccc(Cl)c2)c(=O)[nH]c(=O)n1Cc1ccccc1 | nt | 1.5 | 3 | 2 | -0.9 | 8 | 2.4 | -1 | nt | -7
Cc1noc(C)c1S(=O)(=O)N1CCC(C(=O)NC2CCN(Cc3ccccc3)CC2)CC1 | 52 | 0.7 | nt | nt | nt | 6 | 2.4 | 0 | 3 | 7
O=C(NCCCN1CCN(c2ccccc2F)CC1)C1CCC(=O)N1C1CCCC1 (configuration not stated) | -11 | -0.5 | nt | nt | nt | -7 | -2.8 | nt | 8 | -6
COc1ccc(CN(C)C(=O)c2ccc3c(=O)n4c(nc3c2)CCC4)cc1 | -2 | 0.4 | 4 | -2 | -4.3 | 3 | -4.3 | 0 | -3 | -5
CSCc1c(C(=O)OCC(=O)NC2CCCCC2)oc2ccccc12 | nt | 0.1 | 5 | 9 | 0.5 | 5 | 2.2 | 0 | nt | -3
COc1cc2c(cc1OC)CC1(CCCCC1)N=C2 | 8 | 0.6 | 22 | 20 | 4.2 | -2 | -2.5 | -1 | 6 | -8
O=C(c1ccc(Br)o1)N1CCC(Cc2ccccc2)CC1 | 9 | 0.4 | -49 | -69 | -9.6 | 1 | -8.5 | -3 | nt | -9
CC(c1ccccn1)N(CCN(C)C)C(=S)Nc1cccc(F)c1 (configuration not stated) | -15 | 0.0 | nt | nt | nt | 3 | 3.3 | 33 | 33 | -6
CN(CC(O)COCc1ccc2c(c1)OCO2)C1CCCCC1 (configuration not stated) | 4 | 0.1 | 9 | 11 | 1.2 | -1 | -4.2 | -22 | -5 | 2
CCOC(=O)C1=C(C)NC(=O)C1CC(=O)O (configuration not stated) | -6 | 0.5 | nt | nt | nt | -3 | 5.6 | 39 | 1 | nt
O=C(COc1cccc2ccccc12)Nc1cc(Cl)ccc1C(=O)O | -11 | -0.2 | -26 | -41 | -10 | 2 | 1.2 | 5 | 42 | 0
NC(=O)C1CCN(c2c([N+](=O)[O-])cc(C(F)(F)F)cc2[N+](=O)[O-])CC1 | -4 | 0.8 | 4 | 6 | 0.7 | -13 | 5.0 | 3 | 2 | -8
COc1ccc(N2C(=O)CC(N3CCN(S(=O)(=O)c4ccc(Cl)cc4)CC3)C2=O)cc1 (configuration not stated) | 6 | -0.2 | 2 | -12 | 1.0 | -2 | -3.5 | 20 | -12 | -2
Cc1onc(C(=O)Nc2c(C)n(C)n(-c3ccccc3)c2=O)c1[N+](=O)[O-] | 1 | ? | 15 | 6 | -3.1 | -6 | 0.3 | -10 | -5 | 0
CCc1cc(S(=O)(=O)N2CCN(C(=O)c3ccco3)CC2)ccc1OC | 9 | 1.1 | 6 | 0 | 5.4 | -3 | -3.4 | 1 | 1 | -1
Cc1cc(Cl)c(S(=O)(=O)NCC2CCCO2)cc1OCC(=O)NC1CCCCC1 (configuration not stated) | 1 | 0.2 | nt | nt | nt | -6 | 0.1 | nt | -16 | -32
(continued)
SMILES | T cruzi repl | A1 inh | rRNA inh HTS | rRNA inh HTS OD600 | rRNA inh HTS RFP | Beta2AR agonist | LANA-H2A inh | ALR inh | Calb FLC | Beta cell apopt
Cc1nc(-c2ccccc2)sc1C(=O)O | -19 | 1.2 | 7 | -5 | -4.4 | 1 | -0.8 | -3 | -16 | nt
CCN1CCN(CC(=O)N2N=C(c3cccs3)CC2c2ccc(OC)cc2)C(=O)C1=O (configuration not stated) | -6 | -0.3 | -3 | -7 | -8.8 | -3 | 2.7 | nt | 7 | -3
Cc1ccc(S(=O)(=O)NC(C(=O)Oc2ccc3ccc(=O)oc3c2)c2ccccc2)cc1 (configuration not stated) | 5 | -0.8 | nt | nt | nt | 2 | 5.6 | 3 | 0 | -1
COc1ccc(CCN(C)CC(O)COc2c(C)ccc(C)c2C)cc1OC (configuration not stated) | 46 | -0.4 | 1 | 2 | 0.7 | -7 | -1.1 | -3 | -10 | -7
O=C1NCCN(Cc2ccc(Cl)c(F)c2)C1CC(=O)N1CCc2ccccc2C1 (configuration not stated) | -15 | 0.3 | 2 | 1 | 2.2 | 3 | 0.1 | 1 | -10 | -3
Cc1ccc(Cn2c(=S)[nH]c3ccccc3c2=O)cc1 | -18 | 0.4 | 6 | 21 | -0.4 | -9 | 4.1 | nt | -5 | nt
CCS(=O)(=O)c1ncc(Cl)c(C(=O)Nc2ccc(S(=O)(=O)N(C)c3ccccc3)cc2)n1 | 32 | 13* | -36* | -20* | -1.4* | -294 | -4.4 | 4 | 0 | 105*
CC1=NN(c2cccc(Cl)c2)C(=O)C12CC(C)=C(C)CS2 (configuration not stated) | -7 | 0.2 | nt | nt | nt | 7 | 1.3 | -3 | 27 | 1

The list is partial (hit frequency here may not be typical).
